High-throughput results: PubChem BioAssay, Broad Institute
UUG fidelity: modulators of start codon recognition fidelity in yeast; S. cerevisiae UUG-firefly luciferase reporter, luminescence/redox ratio; activity score, % at 18.7 µM; 350,000 compounds, 0.13% hits;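 active = replicate mean at a twofold rise or more, about +100% in these data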;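 also: firefly luciferase made from a UUG start codon reports start codon fidelity; reporter light over untreated wells divided by growth signal over untreated wells; some hits fall short of that in this replicate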
An asterisk follows results filed as active. An excerpt (hit frequency here may not be typical).

no. | molecule | UUG fidelity
1 | COc1ccc(NC(=O)N(C)C[C@@H]2Oc3c(NC(=O)C4CCOCC4)cccc3C(=O)N([C@H](C)CO)C[C@@H]2C)cc1 | 9.3
2 | CC=Cc1ccc2n(c1=O)C[C@H]1[C@H](CO)[C@@H](C(=O)N3CCCCC3)N(Cc3ccccc3OC)[C@@H]21 (mixture of isomers) | 7.7
3 | COCC(=O)Nc1ccc2c(c1)OC[C@@H](C)N(C)C[C@H](C)[C@H](OC)CN(C)C2=O | -19.1
4 | C[C@H]1CN([C@@H](C)CO)C(=O)Cc2cc(NC(=O)Cc3ccccc3)ccc2O[C@@H]1CN(C)S(=O)(=O)c1ccc(F)cc1 | 1.2
5 | Cc1noc(C)c1NC(=O)Nc1cccc2c1O[C@H](CN(C)S(=O)(=O)c1ccc(F)cc1)[C@H](C)CN([C@H](C)CO)C2=O | 2.7
6 | CCCNC(=O)N1C[C@H]2[C@@H](c3ccccc31)[C@@H](CO)N2CC1CCCC1 | 10.0
7 | COc1ccc(CN(C)C[C@@H]2Oc3c(NC(=O)Nc4ccc(C(F)(F)F)cc4)cccc3C(=O)N([C@@H](C)CO)C[C@H]2C)cc1 | 2.2
8 | CCC(=O)Nc1ccc2c(c1)OC[C@@H](C)N(Cc1ccccc1)C[C@@H](C)[C@H](OC)CN(C)C2=O | -6.9
9 | Cc1noc(C)c1S(=O)(=O)N(C)C[C@@H]1Oc2c(NC(=O)C3CCCCC3)cccc2C(=O)N([C@@H](C)CO)C[C@@H]1C | -1.9
10 | Cc1cccc(S(=O)(=O)N2CCCCN3[C@H](C2)[C@@H](c2ccc(-c4cccnc4)cc2)[C@@H]3CO)c1 | 25.7
11 | COc1ccc(S(=O)(=O)N(C)C[C@@H]2Oc3c(NC(=O)C4CCOCC4)cccc3C(=O)N([C@@H](C)CO)C[C@@H]2C)cc1 | -1.5
12 | CO[C@H]1CN(C)C(=O)c2ccc(NC(=O)C3CCCC3)cc2OC[C@H](C)N(C(C)=O)C[C@H]1C | 88.5
13 | CC(=O)NC[C@H]1[C@@H](c2ccc(C3=CCCC3)cc2)[C@@H](CO)N1C(=O)NC(C)C | 31.4
14 | CCCNC(=O)C[C@@H]1CC[C@H]2[C@@H](COC[C@H](O)CN2C(=O)C2CCOCC2)O1 | -10.4
15 | CN(C)C(=O)c1cccc(-c2ccc([C@H]3[C@H](CO)N4CCCCN(CCC(F)(F)F)C[C@@H]34)cc2)c1 | -6.3

In another format: entries from further up.
#14 CCCNC(=O)C[C@@H]1CC[C@H]2[C@@H](COC[C@H](O)CN2C(=O)C2CCOCC2)O1
  UUG fidelity = -10.4

#12 CO[C@H]1CN(C)C(=O)c2ccc(NC(=O)C3CCCC3)cc2OC[C@H](C)N(C(C)=O)C[C@H]1C
  UUG fidelity = 88.5

#1 COc1ccc(NC(=O)N(C)C[C@@H]2Oc3c(NC(=O)C4CCOCC4)cccc3C(=O)N([C@H](C)CO)C[C@@H]2C)cc1
  UUG fidelity = 9.3

#3 COCC(=O)Nc1ccc2c(c1)OC[C@@H](C)N(C)C[C@H](C)[C@H](OC)CN(C)C2=O
  UUG fidelity = -19.1

(further entries)
no. | molecule | UUG fidelity
16 | O=C(Nc1ccc(F)cc1)N1C[C@@H]2[C@H](c3ccccc31)[C@H](CO)N2Cc1ccccc1Cl | -13.5
17 | CCC(=O)N1C[C@H](C)[C@@H](OC)CN(C)C(=O)c2cc(NC(=O)c3ccccc3)ccc2OC[C@@H]1C | 11.4
18 | COc1cccc(S(=O)(=O)N(C)C[C@@H]2Oc3cc(C4=CCCC4)ccc3S(=O)(=O)N([C@H](C)CO)C[C@@H]2C)c1 | -13.1
19 | CN1C(=O)c2cc(NC(=O)Nc3ccc(F)cc3)ccc2OC[C@H]2O[C@@H](CC(=O)NC3CCC3)CC[C@@H]21 | -18.8
20 | C[C@H](CO)N1C[C@H](C)[C@H](CN(C)S(=O)(=O)c2ccc(Cl)cc2)Oc2ccc(NC(=O)CCCN(C)C)cc2C1=O | 35.7
21 | C[C@@H]1CN([C@H](C)CO)C(=O)c2cccc(NS(=O)(=O)c3ccccc3)c2O[C@@H]1CN(C)S(C)(=O)=O | 14.5
22 | C[C@@H]1CN([C@H](C)CO)C(=O)c2c(c3ccccc3n2C)-c2ccccc2CO[C@H]1CN(C)C(=O)Nc1cccc(F)c1 | 11.4
23 | COCC(=O)Nc1ccc2c(c1)OC[C@@H](C)N(C(=O)COC)C[C@@H](C)[C@@H](OC)CN(C)C2=O | 196.7*
24 | O=C(Nc1ccccc1)N1CCCCN2[C@H](CO)[C@H](c3ccc(Br)cc3)[C@@H]2C1 | 2.0
25 | C[C@@H]1CN([C@@H](C)CO)C(=O)c2cccc(NS(=O)(=O)c3ccc(F)cc3)c2O[C@@H]1CN(C)Cc1ccc2c(c1)OCO2 | -2.1
26 | CN(C)CC#Cc1ccc([C@@H]2[C@H]3CN(C(=O)Nc4ccc(F)cc4)CCCCN3[C@H]2CO)cc1 | 6.5
27 | O=C(CN1CCOCC1)N1CCCCN2[C@H](C1)[C@H](c1ccc(/C=C/c3ccccc3)cc1)[C@@H]2CO | 23.2
28 | CCCNC(=O)C[C@@H]1CC[C@H]2[C@@H](COc3ccc(NC(=O)c4ccc(C(F)(F)F)cc4)cc3C(=O)N2C)O1 | 3.5
29 | O=C(c1cccc(F)c1)N1CCCCN2[C@H](CO)[C@H](c3ccc(C#CC4(O)CCCC4)cc3)[C@H]2C1 | 12.4
30 | CC(C)NC(=O)N1CCCCN2[C@H](C1)[C@@H](c1ccc(C#C[C@@H](C)O)cc1)[C@@H]2CO | -7.9
31 | C[C@H](CO)N1C[C@H](C)[C@H](CN(C)Cc2ccc(C(=O)Nc3ccccc3N)cc2)Oc2c(NC(=O)c3nc4ccccc4s3)cccc2C1=O | -0.7
32 | CN(C)CC(=O)N1CCCCN2[C@H](C1)[C@H](c1ccc(-c3ccccc3)cc1)[C@@H]2CO | -4.3
33 | CC(C)NC(=O)N(C)C[C@@H]1OCc2ccccc2-c2c(n(C)c3ccccc23)C(=O)N([C@H](C)CO)C[C@@H]1C | 6.6
34 | CCS(=O)(=O)Nc1ccc2c(c1)C(=O)N(C)[C@H]1CC[C@H](CC(=O)OC)O[C@H]1CO2 | -3.8
35 | CCCNC(=O)N1[C@H](CO)[C@@H]2c3ccccc3N(C(=O)c3ccncc3)C[C@@H]21 | -11.5
36 | CO[C@H]1CN(C)C(=O)c2cc(NC(=O)Nc3cccc(F)c3)ccc2OC[C@@H](C)NC[C@@H]1C | 8.2
37 | CO[C@H]1CN(C)C(=O)c2cc(NC(C)=O)ccc2OC[C@@H](C)N(CCc2ccccc2)C[C@H]1C | 5.7
38 | O=C(Nc1nccs1)[C@@H]1[C@@H](CO)[C@@H]2Cn3c(cccc3=O)[C@H]1N2C(=O)C1CC1 | 1.5
39 | C[C@@H](O)C#Cc1ccc([C@@H]2[C@@H](CO)N3CCCCN(C(=O)c4ccncc4)C[C@@H]23)cc1 | 6.3
40 | C[C@H]1CN([C@@H](C)CO)C(=O)c2cc(NS(=O)(=O)c3ccc(Cl)cc3)ccc2O[C@@H]1CN(C)Cc1ccc2c(c1)OCO2 | 3.1
41 | C/C=C/c1ccc([C@@H]2[C@H](CO)N[C@H]2CN(CC)C(=O)CN2CCOCC2)cc1 | 5.8
42 | O=S(=O)(c1ccccc1F)N1CCCCN2[C@@H](CO)[C@H](c3ccc(-c4cccnc4)cc3)[C@@H]2C1 | -6.9
43 | CO[C@H]1CN(C)C(=O)c2ccc(NC(C)=O)cc2OC[C@@H](C)N(Cc2ccncc2)C[C@@H]1C | -1.1
44 | Cc1ccccc1S(=O)(=O)N1CCCCN2[C@H](C1)[C@@H](c1ccc(-c3cccnc3)cc1)[C@@H]2CO | -12.2
45 | Cc1noc(C)c1S(=O)(=O)N(C)C[C@@H]1Oc2c(NC(=O)c3ccc(-c4nccs4)cc3)cccc2C(=O)N([C@H](C)CO)C[C@@H]1C | 1.4
46 | COCC(=O)N1C[C@@H](C)[C@@H](OC)CN(C)C(=O)c2ccc(NC(=O)C3CCC3)cc2OC[C@H]1C | -9.5
47 | O=C(c1cccc(F)c1)N1CCCCN2[C@H](CO)[C@H](c3ccc(-c4ccc(F)cc4)cc3)[C@H]2C1 | -5.8
48 | Cc1noc(C)c1S(=O)(=O)Nc1cccc2c1O[C@@H](CN(C)S(C)(=O)=O)[C@@H](C)CN([C@H](C)CO)C2=O | -7.1
49 | Cc1cccc(S(=O)(=O)N2CC[C@@H]3[C@H](CO)Nc4ccc(-c5ccccc5F)cc4[C@@H]32)c1 | -9.7
50 | CN(C)CC#Cc1ccc([C@@H]2[C@@H](CO)N3CCCCN(C(=O)NC4CCCC4)C[C@H]23)cc1 | -6.8
51 | C[C@@H]1CN([C@H](C)CO)C(=O)c2cc(NC(=O)CCN3CCOCC3)ccc2O[C@@H]1CN(C)S(=O)(=O)c1cn(C)cn1 | -10.3
52 | COc1ccc(S(=O)(=O)N(C)C[C@H]2Oc3ccc(NC(=O)CCCN(C)C)cc3CC(=O)N([C@H](C)CO)C[C@@H]2C)cc1 | 4.8
53 | CCS(=O)(=O)N1CCCCN2[C@H](CO)[C@H](c3ccc(-c4ccccc4)cc3)[C@@H]2C1 | -10.2
54 | COc1ccc(NC(=O)Nc2ccc3c(c2)CC(=O)N([C@@H](C)CO)C[C@H](C)[C@@H](CN(C)CC2CC2)O3)cc1 | -5.7
55 | OC[C@@H]1[C@H](c2ccc(-c3ccc(F)cc3)cc2)[C@@H]2CN(Cc3ccncc3)CCCCN12 | -14.9
56 | C[C@@H]1CN([C@H](C)CO)C(=O)c2cccc(NC(=O)Nc3ccc(F)cc3)c2O[C@H]1CN(C)Cc1ccc2c(c1)OCO2 | 0.1
57 | CCCNC(=O)C[C@H]1CC[C@@H]2[C@H](COC[C@H](O)CN2S(=O)(=O)c2ccccc2F)O1 | 4.1
58 | CC(C)NC(=O)N1CCCCN2[C@@H](CO)[C@@H](c3ccc(C#C[C@H](C)O)cc3)[C@@H]2C1 | 3.0
59 | O=C(Nc1ccccc1)N1CCCCN2[C@H](CO)[C@@H](c3ccc(C#Cc4ccccc4)cc3)[C@H]2C1 | 8.8
60 | OC[C@H]1[C@H](c2ccc(-c3cccc(F)c3)cc2)[C@@H]2CN(CCC(F)(F)F)CCCCN12 | -8.4
61 | C[C@@H]1CN([C@H](C)CO)C(=O)c2cc(NC(=O)Nc3cccc4ccccc34)ccc2O[C@@H]1CN(C)C(=O)Nc1ccccc1 | 27.0
62 | C[C@H]1CN([C@@H](C)CO)C(=O)c2cc(NS(=O)(=O)c3ccc(F)cc3)ccc2O[C@@H]1CN(C)Cc1ccc2c(c1)OCO2 | 6.3
63 | O=C(C[C@H]1CC[C@H]2[C@@H](COC[C@H](O)CN2C(=O)Nc2ccc(F)cc2)O1)NC1Cc2ccccc2C1 | 19.0
64 | O=C(C[C@H]1CC[C@@H]2[C@H](COC[C@H](O)CN2Cc2nccs2)O1)NCc1ccccc1F | 2.7
65 | C[C@@H]1CN([C@H](C)CO)C(=O)c2cc(NS(=O)(=O)c3cn(C)cn3)ccc2O[C@H]1CN(C)S(=O)(=O)c1cccs1 | 3.2
66 | CO[C@@H]1CN(C)C(=O)c2cc(NC(=O)NC(C)C)ccc2OC[C@@H](C)N(C)C[C@@H]1C | -4.7
67 | CO[C@@H]1CN(C)C(=O)c2ccc(NC(=O)C3CCC3)cc2OC[C@@H](C)N(C(=O)c2ccccc2)C[C@H]1C | -9.4
68 | C[C@@H]1CN([C@H](C)CO)C(=O)c2cc(NS(C)(=O)=O)ccc2O[C@H]1CN(C)C(=O)Nc1ccc2c(c1)OCO2 | -6.6
69 | O=C(NCC1CC1)[C@@H]1[C@@H](CO)[C@@H]2Cn3c(ccc(C4=CCCCC4)c3=O)[C@H]1N2 | 4.5
70 | O=S(=O)(c1ccccc1)N1CCCCN2[C@@H](CO)[C@@H](c3ccc(-c4cncnc4)cc3)[C@@H]2C1 | 3.6
71 | CO[C@@H]1CN(C)C(=O)c2ccc(NC(=O)Nc3ccccc3)cc2OC[C@H](C)N(C(=O)Nc2c(C)noc2C)C[C@H]1C | 6.0
72 | CCC(=O)Nc1ccc2c(c1)OC[C@H](C)N(Cc1cncnc1)C[C@H](C)[C@H](OC)CN(C)C2=O | -11.7
73 | CN1C(=O)c2cc(NC(=O)C3CCOCC3)ccc2OC[C@H]2O[C@@H](CC(=O)Nc3ccc4c(c3)CCCC4)CC[C@@H]21 | 3.7
74 | Cc1ccc(S(=O)(=O)Nc2ccc3c(c2)CC(=O)N([C@@H](C)CO)C[C@H](C)[C@@H](CN(C)C(=O)NC(C)C)O3)cc1 | -6.3
75 | C[C@H]1CN([C@@H](C)CO)C(=O)c2cc(NS(=O)(=O)c3ccccc3)ccc2O[C@@H]1CN(C)Cc1ccncc1 | -2.2

Next part
no. | molecule | UUG fidelity
76 | CNC[C@@H]1Oc2ccc(NS(=O)(=O)c3cccs3)cc2C(=O)N([C@H](C)CO)C[C@H]1C | -6.1
77 | OC[C@H]1[C@H](c2ccc(-c3ccccc3)cc2)[C@@H]2CN(Cc3cncnc3)CCCCN12 | 17.7
78 | C[C@H]1CN([C@@H](C)CO)C(=O)c2cccc(NC(=O)c3cnccn3)c2O[C@H]1CN(C)Cc1ccc(-c2ccccc2)cc1 | -0.9
79 | CC(C)NC(=O)N(C)C[C@@H]1Oc2ncc(C#CC3CCCC3)cc2C(=O)N([C@@H](C)CO)C[C@H]1C | 14.8
80 | COCC#Cc1ccc([C@H]2[C@@H](CO)N3CCCCN(C(=O)COC)C[C@H]23)cc1 | 4.9
81 | C[C@@H]1CN([C@@H](C)CO)C(=O)c2cc(NC(=O)C3CCCCC3)ccc2O[C@H]1CN(C)S(=O)(=O)c1ccc(F)cc1 | -13.1
82 | Cc1noc(C)c1NC(=O)N(C)C[C@H]1Oc2c(NC(=O)Nc3ccc(C(F)(F)F)cc3)cccc2C(=O)N([C@@H](C)CO)C[C@@H]1C | 44.5
83 | COc1ccc(C#Cc2ccc([C@@H]3[C@H](CO)N4CCCCN(C(=O)Nc5ccccc5F)C[C@@H]34)cc2)cc1 | -2.9
84 | COc1ccc(NC(=O)N(C)C[C@@H]2Oc3c(NS(=O)(=O)c4cccs4)cccc3C(=O)N([C@@H](C)CO)C[C@H]2C)cc1 | 1.5
85 | CCS(=O)(=O)N1CCCCN2[C@H](C1)[C@@H](c1ccc(-c3cccc(C#N)c3)cc1)[C@@H]2CO | 6.7
